KCNQ2 pot: potentiators of rat KCNQ2 potassium channel; B-score at 10 µM; 310,000 tested, 0.54% active; CHO-K1 KCNQ2, FluxOR thallium flux fluorescence; hits give high values;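 active means fluorescence ratio B-score at least 3 SD of library B-scores, with initial fluorescence B-score within 3 SD, cut at about 5.3 in these data; same plate scores as AID 2156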;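 further: B-score of peak minus minimum over baseline fluorescence ratio after K+ and Tl+ stimulus; positive B-score means potentiation of KCNQ2 with more thallium influx and brighter signal; only the inactives scoring about 0 or higher are listed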
Target sequence (O88943 whole entry, looked up): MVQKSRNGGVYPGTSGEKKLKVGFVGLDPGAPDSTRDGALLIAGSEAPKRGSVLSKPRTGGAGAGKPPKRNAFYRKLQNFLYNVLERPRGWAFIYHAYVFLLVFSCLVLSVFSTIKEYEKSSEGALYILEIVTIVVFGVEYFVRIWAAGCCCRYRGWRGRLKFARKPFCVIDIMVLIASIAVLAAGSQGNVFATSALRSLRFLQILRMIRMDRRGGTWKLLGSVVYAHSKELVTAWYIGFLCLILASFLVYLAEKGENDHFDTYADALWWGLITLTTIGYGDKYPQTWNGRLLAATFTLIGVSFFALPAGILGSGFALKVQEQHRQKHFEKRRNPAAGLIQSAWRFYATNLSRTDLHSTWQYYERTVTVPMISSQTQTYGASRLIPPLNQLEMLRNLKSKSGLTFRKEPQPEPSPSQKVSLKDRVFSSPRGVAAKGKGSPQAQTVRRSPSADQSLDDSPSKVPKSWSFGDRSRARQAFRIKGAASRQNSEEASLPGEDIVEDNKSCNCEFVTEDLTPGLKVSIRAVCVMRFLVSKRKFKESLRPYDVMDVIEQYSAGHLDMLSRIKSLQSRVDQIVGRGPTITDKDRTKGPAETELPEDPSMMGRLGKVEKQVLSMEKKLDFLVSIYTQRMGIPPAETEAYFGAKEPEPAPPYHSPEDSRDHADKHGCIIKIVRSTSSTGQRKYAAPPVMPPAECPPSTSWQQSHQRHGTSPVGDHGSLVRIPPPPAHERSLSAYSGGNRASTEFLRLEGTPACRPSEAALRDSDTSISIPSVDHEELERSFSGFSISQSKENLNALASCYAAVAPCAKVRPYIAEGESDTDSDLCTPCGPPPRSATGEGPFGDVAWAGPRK
KCNQ2 pot baseline: further read-out of KCNQ2 pot, marked with its call; B-score; compound at 10 µM; measured here: initial fluorescence intensity artifact check;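 brightness before thallium and not channel activity; 0 = typical well and far values either way flag optical interference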
Numbers without * were called inactive. These rows are one share of the data; count on the stated rates, not on these rows.

Structure | KCNQ2 pot | KCNQ2 pot baseline
COc1ccc(NC(=O)CN(C)C(=O)c2ccc(NC3CC3)c([N+](=O)[O-])c2)cc1 | 0.01 | 1.3
CC([NH2+][O-])C(C)(C)NO (configuration not stated) | 0.56 | -1.2
O=[N+]([O-])c1cccc(CN2CCCCCC2)c1 | 0.02 | -0.57
CC(=O)c1cccc(NC(=O)c2ccc(NS(C)(=O)=O)cc2)c1 | 1.1 | 0.06
O=C(NCC1CCCO1)C1CCCN1C(=O)Nc1ccc(Cl)cc1 (configuration not stated) | 2.5 | -1.1
COc1ccc(NC(=O)CSc2nnc(-c3ccccn3)n2N)cc1 | 0.09 | 0.01
CCOc1cc(-c2cc(-c3ccccc3)nc(N)c2C#N)ccc1O | 0.34 | -0.5
COc1ccc(-c2nc(CN3CCN(C(=O)c4ccco4)CC3)c(C)o2)cc1OC | 0.19 | 1.4
COc1ccc(C(=O)COC(=O)COc2cccc3c2OC(C)(C)C3)c(OC)c1 | 1.6 | 1.7
COc1cccc(Cn2nnc3c(=O)[nH]c(C4CCCN(C(=O)c5ccccc5Cl)C4)nc32)c1 (configuration not stated) | 1.8 | 0.82
Cc1sc(N)c(C#N)c1C | 0.94 | 1.4
O=C(OCc1cncs1)c1ccccc1Cl | 0.77 | -0.14
N#CCc1c(C#N)c(N)nc(N2CCCC2)c1C#N | 0.52 | 0.78
Cc1ccc(S(=O)(=O)N2CCCC2CNC(=O)C(=O)NC2CCCC2)cc1 (configuration not stated) | 0.12 | -1.1
Cc1sc(NC(=O)COc2ccccc2)c(C#N)c1C | 0.42 | 0.57
CC(Oc1ccccc1Cl)C(=O)N(Cc1cccs1)C1CCS(=O)(=O)C1 (configuration not stated) | 0.49 | 0.66
Cc1nn(CC(=O)NCCC2=CCCCC2)c(C)c1[N+](=O)[O-] | 0.98 | 0.93
COC(=O)CSc1nc(C(C)C)nc2ccccc12 | 0.44 | 1
Cc1ccc(S(=O)(=O)N2CCN(C(=O)C(C)Cn3cncn3)CC2)cc1 (configuration not stated) | 0.9 | -0.83
COc1ccc(CNC(=O)CN(C(=O)c2snc(C(N)=O)c2N)c2ccc(OC)c(OC)c2)cc1 | 0.54 | 0.29
CC(C(=O)NCCS(=O)(=O)c1ccc(Cl)cc1)S(=O)(=O)c1ccccc1 (configuration not stated) | 0.69 | 0.41
COc1ccccc1-n1c(SCC(=O)N2CCCCC2)nnc1-c1ccccc1O | 0.97 | 0.36
CC(=O)NCC(=O)N(c1ccccc1)C1(C(=O)NC2CCCCC2)CCCCC1 | 0.2 | 0.77
Cc1noc(NS(=O)(=O)c2ccc(NC(=O)c3ccc(N4C(=O)c5ccccc5C4=O)cc3)cc2)c1C | 0.3 | -1
Cc1cc(-c2cccs2)c(C#N)c(=S)[nH]1 | 0.74 | 0.65
O=C(CCNC(=O)c1ccccc1Cl)NN1C(=O)NC2(CCCCC2)C1=O | 0.11 | -1.1
CCOC(=O)c1ccc(NC(=S)NCCc2ccc(F)cc2)cc1 | 0.83 | -0.04
CNc1csc(C)c(C)c1=O | 0.81 | 0.74
CCCCCC(=O)N/N=C/c1ccco1 | 7.2* | -0.01*
CC(=O)N1CCC(N(CCN2CCOCC2)C(=S)Nc2cccc(C)c2C)CC1 | 0.3 | 1.7
CCOC(=O)c1cncc(C#CCO)c1 | 1.2 | -0.72
O=S(=O)(Nc1ccc(N2CCCCC2)cc1)c1cccc2cccnc12 | 0.98 | 0.27
CCCNC(=O)c1csc2c1CCCCC2 | 0.25 | 1.9
CSCCC(NC(=O)C1CCC(C)CC1)C(=O)NCCN1CCOCC1 (configuration not stated) | 1.5 | 0
CCOC(=O)C1CCN(C(=O)c2cc3ccc(OC)cc3[nH]2)CC1 | 0.97 | -0.05
CN1CCc2ccccc2CC1=O | 0.82 | 0.56
N=c1nc(SCCC(=O)O)ss1 | 2.6 | -0.48
CCOC(=O)C(N)CSC1CC(=O)N(CCc2ccccc2)C1=O (configuration not stated) | 1 | -0.38
Cc1nc2ccccc2n1C(=O)c1ccc(Cl)cc1[N+](=O)[O-] | 0.52 | -2.2
CCOc1ccc(CC2c3cc(OCC)c(OCC)cc3CCN2C(=O)CN2CCN(C)CC2)cc1OCC (configuration not stated) | 0.64 | -1.8
Cc1ccc(Cn2ccc(NC(=O)c3cc4nc(-c5ccco5)cc(C(F)(F)F)n4n3)n2)cc1 | 0.15 | -0.32
CCC(CC)NC(=O)Nc1ccccc1C(F)(F)F | 1.3 | 0.02
CN(C)CCCNc1ncnc2sc(-c3ccccc3)cc12 | 2.5 | -1.2
CC1CCN(CCCCOc2ccccc2[N+](=O)[O-])CC1 | 0.33 | -1.2
Cc1cccc(Nc2ccncc2S(N)(=O)=O)c1 | 1.4 | -0.86
COc1cc(OC)c(OC)cc1CN1CCCC(C(=O)N2CCCCC2)C1 (configuration not stated) | 0.61 | 0.25
Cc1ccc(NS(=O)(=O)c2cccc3cccnc23)cc1Cl | 0.83 | 0.5
Cc1ccc(C)c(NC(=O)C(=O)NCCCN2CCOCC2)c1 | 0.96 | -0.87
CCN(CC)S(=O)(=O)c1ccc(O)c(C(=O)OCC(=O)N2CCCC2)c1 | 0.85 | 0.11
CC(C)Cn1c(CN(C)Cc2ccccc2)nc2c1c(=O)n(C)c(=O)n2C | 1.2 | -2.3
COc1ccccc1NC(=O)CC(=O)CSc1nnc(-c2ccc(C)cc2)n1C | 1.3 | -0.83
CCOC(=O)N1CCC2(CC1)C(C(=O)C13CC4CC(CC(C4)C1)C3)C2(C#N)C#N (configuration not stated) | 0.28 | -0.71
O=C1CN(Cc2cc(=O)oc3cc4c(cc23)CCC4)CCN1 | 1.7 | 1.1
CN(C)CCN1C(=O)C(O)=C(C(=O)c2cc3ccccc3o2)C1c1ccc(N(C)C)cc1 (configuration not stated) | 0.09 | 0.1
CC(=O)C1=C(O)C(=O)N(C2CCCCC2)C1c1ccccc1 (configuration not stated) | 0.42 | -1.1
Cc1ccccc1NC(=S)N(CCN(C)C)C(C)c1ccco1 (configuration not stated) | 1.8 | 0.19

(listing goes on)
Structure | KCNQ2 pot | KCNQ2 pot baseline
CCN1C=C(C(=O)OC)C(c2cccc(OC)c2OC)C(C(=O)OC)=C1 | 0.3 | 0.22
O=C(CSc1ccccc1C(=O)O)NC12CC3CC(CC(C3)C1)C2 | 0.34 | 1
Cc1cc(NS(=O)(=O)c2ccc(NC(=O)NC(C)(C(F)(F)F)C(F)(F)F)cc2)no1 | 0.28 | -0.13
O=C(CCN1C(=O)/C(=C/C=C/c2ccccc2)SC1=S)Nc1nc2ccccc2s1 | 0.98 | 0.54
Cc1ccc(S(=O)(=O)N2CC=C(C(=O)NCc3ccc(F)cc3)CC2)cc1 | 0.02 | 0.62
CCc1nnc(NC(=O)CSc2nnc(Cc3cccn3C)n2CCOC)s1 | 0.58 | 0.97
N/C(=N/OS(=O)(=O)c1ccc([N+](=O)[O-])cc1)c1ccncc1 | 3.5 | -1.2
CCN(CC)c1ccc(C(=O)OCc2cc(=O)oc3cc(O)ccc23)cc1 | 0.41 | 0.83

Sorted by the number under KCNQ2 pot baseline (largest number first): some entries from above
Structure	KCNQ2 pot baseline
O=C(CSc1ccccc1C(=O)O)NC12CC3CC(CC(C3)C1)C2	1
CCc1nnc(NC(=O)CSc2nnc(Cc3cccn3C)n2CCOC)s1	0.97
CCN(CC)c1ccc(C(=O)OCc2cc(=O)oc3cc(O)ccc23)cc1	0.83
CCN1C=C(C(=O)OC)C(c2cccc(OC)c2OC)C(C(=O)OC)=C1	0.22
Cc1cc(NS(=O)(=O)c2ccc(NC(=O)NC(C)(C(F)(F)F)C(F)(F)F)cc2)no1	-0.13
N/C(=N/OS(=O)(=O)c1ccc([N+](=O)[O-])cc1)c1ccncc1	-1.2

The results go on.
Structure | KCNQ2 pot | KCNQ2 pot baseline
Cc1c(C(=O)N2CCCCC2)c(S(=O)(=O)Nc2cccc(Br)c2)c(C)n1C | 0.5 | -0.01
C(=N\n1c2ccccc2c2ccccc21)/c1ccccc1 | 0.06 | 1.3
O=C(N/N=C1\NC(=O)C(CO)(CO)S1)c1ccccc1 | 0.68 | -0.81
CCOC(=S)SCC(=O)N1CCc2cc(OC)c(OC)cc2C1C1C(=O)CC(C)(C)CC1=O (configuration not stated) | 1 | 1.3
CN(CC(=O)NCCc1ccccc1)S(=O)(=O)c1cccs1 | 2 | -1.5
CCOc1ccc(C=O)cc1CN1CCCCC1 | 1.6 | -0.07
O=C(Cc1ccccc1)Nn1c(O)c(/C=C2\C=Nc3ccccc32)sc1=S | 1.7 | 0.41
CC(=O)Oc1ccc2c3c(c(=O)oc2c1)CCCC3 | 0.71 | 0.01

Three structures from above, ordered by length of the SMILES, low to high:
Structure | KCNQ2 pot | KCNQ2 pot baseline
CC(=O)Oc1ccc2c3c(c(=O)oc2c1)CCCC3 | 0.71 | 0.01
O=C(Cc1ccccc1)Nn1c(O)c(/C=C2\C=Nc3ccccc32)sc1=S | 1.7 | 0.41
Cc1c(C(=O)N2CCCCC2)c(S(=O)(=O)Nc2cccc(Br)c2)c(C)n1C | 0.5 | -0.01

Next part:
Structure | KCNQ2 pot | KCNQ2 pot baseline
C=CCNC(=O)N1CCC(CO)(Cc2ccc(Cl)cc2)CC1 | 0.65 | -0.9
CSCCC(NS(=O)(=O)c1ccc2ccccc2c1)C(=O)O (configuration not stated) | 0.51 | 2
COc1cc(C(=O)Nn2c(CC(C)C)nc3ccccc3c2=O)cc(OC)c1OC | 0.13 | -1.8
Cc1nc(-c2noc(-c3ccccc3Cl)n2)c(C(F)(F)F)o1 | 0.84 | 0.75
COc1ccc2c(CC(=O)NCCN3C(=O)S/C(=C\c4cccnc4)C3=O)coc2c1 | 0.55 | 0.1
CCn1c(SCC(=O)NC2CCCC2)nnc1C(C)C | 0.02 | 1.1
O=C1OC(=O)C2C1[C@@H]1CC[C@H]2O1 (some centres not stated) | 1.6 | -1.4
CCc1ccc(NC(=O)c2nc(S(=O)(=O)Cc3ccccc3)ncc2Cl)cc1 | 0.71 | 1.2
COc1nc(NCCN2CCOCC2)nc(Nc2ccc([N+](=O)[O-])cc2)n1 | 0.67 | -2.5
COc1cccc(CNC(=O)N2CCN(S(=O)(=O)c3ccc(Cl)cc3)CC2)c1 | 0.93 | -0.69
CC(=O)Nc1cn(-c2ccccc2)nc1-c1ccccc1 | 0.23 | 0.69
Cc1cc(CNC(=O)C2CCC(=O)N(CCc3ccc(Cl)cc3)C2)no1 (configuration not stated) | 1.4 | -1.3
O=C(CCc1nnc2ccc(NCc3ccccc3)nn12)NC1CCCCC1 | 0.85 | 0.8
O=C1/C(=C/c2ccc(F)cc2)Oc2cc(OC(=O)N3CCOCC3)ccc21 | 1.7 | -0.07
Cc1cc2nnc(SCC(=O)NC3CCCCC3)n2c(N)n1 | 0.17 | 2.3
CC(C)(C)NS(=O)(=O)c1ccc(OCC(=O)NCCC2=CCCCC2)cc1 | 0.97 | 0.07
O=C(Cc1ccccc1F)Nc1ccc2c(c1)CCC2 | 5.2 | 0.8
O=C(NCc1ccc(F)cc1)C1CCN(S(=O)(=O)N2CCC3(CC2)OCCO3)CC1 | 0.17 | -0.53
O=C(CSc1ncnc2c1oc1ccccc12)c1cccs1 | 0.98 | 1.1
COc1cc(OC)cc(C(=O)NCCSCc2ccco2)c1 | 0.02 | -0.98
CC1CCN(C(=S)c2ccc3c(c2)OCO3)CC1 | 0.11 | -0.96
CN1c2ccccc2C(O)=C(C(=O)Nc2ccccc2)S1(=O)=O | 0.87 | -0.8
Cc1cc(N2CCCCCC2)n2nc(C)c(-c3ccccc3)c2n1 | 0.28 | 0.8
O=C(COC(=O)c1ccc(O)cc1)NCc1ccc2c(c1)OCO2 | 0.21 | -2.1
Cc1nc(C)n(CC(=O)c2ccc(Cl)cc2Cl)n1 | 0.01 | 1.9
CCCc1nnc(SCC(=O)Nc2ccc3c(c2)OCCO3)n1CCOC | 0.05 | 0.22
CC(=O)N1CCCc2cc(S(=O)(=O)N3CCCC(C(=O)Nc4ccc(C)cc4C)C3)ccc21 (configuration not stated) | 1.7 | 2.3
Cc1ccc(OCC(O)CN2CCN(CC(O)COC(C)C)CC2)c(C(C)(C)C)c1 (configuration not stated) | 1.8 | 0.22
Cc1ccc(C(=O)N/C(=C\c2ccc(-c3ccc(Br)cc3)o2)C(=O)NC2CCS(=O)(=O)C2)cc1 (configuration not stated) | 0.32 | 2.4
O=C(CCC1CCCCC1)NCc1cccs1 | 7.4* | 1.5*
CCN(Cc1ccccc1)C(=O)COc1cc(=O)n(CC)c2ccccc12 | 1.3 | -2.2
O=C(O)c1cc(/C=C/c2ccc(N3CCOCC3)cc2)nc2ccccc12 | 0.34 | 0.02
COCCNc1ncnc2c1cnn2-c1ccc(Cl)cc1 | 0.42 | 0.1
COC(=O)C1CCN(S(C)(=O)=O)CC1 | 0.13 | -0.03
COc1ccc(C(=O)Nc2cccc(NC(=O)c3cccs3)c2)cc1 | 1.1 | -1.1
C=CCOc1ccccc1CNCCNC(=O)c1nonc1N | 1.2 | 0.04
Cc1cccc(Nc2nc(N3CCCCC3)nc(N3CCCCC3)n2)c1 | 0.03 | 0.55
CC1CC(C)CN(CCCNC(=O)c2cc3c(=O)[nH]c4ccccc4c3n2C)C1 (configuration not stated) | 1.6 | -1.2
COC(=O)c1ccc(-n2nnnc2SC)cc1 | 0.04 | 0.08
O=C(CCC(=O)N(CC(=O)NC1CCCC1)c1ccccc1F)Nc1nccs1 | 0.14 | 0.41
CS(=O)(=O)NCCSCc1c(F)cccc1Cl | 0.01 | -0.53
COc1ccc(C(=O)N/C(=C/c2cccc3ccccc23)C(=O)NCCc2c[nH]c3ccccc23)cc1OC | 0.23 | -0.07
CNS(=O)(=O)c1cccc(C(=O)OCC(=O)Nc2cc(F)ccc2F)c1 | 1.7 | -0.74
CCOC(=O)c1nnc2cc(C)nn2c1C | 0.01 | -0.18
CCc1ccccc1NC(=S)N(CCCN1CCOCC1)Cc1cccs1 | 0.25 | -1.4
Cc1ccc(-n2nnc3c(=O)n(CC(=O)NCC4CCCO4)cnc32)cc1 (configuration not stated) | 0.93 | -1.6
COc1ccc(-c2csc(NC(=O)C3CSC4(C)CCC(=O)N34)n2)cc1OC (configuration not stated) | 0.64 | -0.76
O=C(c1ccc(S(=O)(=O)N2CCCC2)cc1)N1CCCc2ccccc21 | 0.01 | 0.79

Bioassay records from PubChem.
